# KCNQ2 enhance = potentiators of rat KCNQ2 potassium channel | B-score at 10 µM | CHO-K1 KCNQ2, FluxOR thallium flux fluorescence; stronger effect = higher value | 310,000 compounds, 0.54% hits | O88943;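 active means fluorescence ratio B-score at least 3 SD of library B-scores, with initial fluorescence B-score within 3 SD, cut at about 5.3 in these data; same plate scores as AID 2156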;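 further: B-score of peak minus minimum over baseline fluorescence ratio after K+ and Tl+ stimulus; positive B-score means potentiation of KCNQ2 with more thallium influx and brighter signal; only the inactives scoring about 0 or higher are listed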
# Target sequence (O88943 whole entry, looked up): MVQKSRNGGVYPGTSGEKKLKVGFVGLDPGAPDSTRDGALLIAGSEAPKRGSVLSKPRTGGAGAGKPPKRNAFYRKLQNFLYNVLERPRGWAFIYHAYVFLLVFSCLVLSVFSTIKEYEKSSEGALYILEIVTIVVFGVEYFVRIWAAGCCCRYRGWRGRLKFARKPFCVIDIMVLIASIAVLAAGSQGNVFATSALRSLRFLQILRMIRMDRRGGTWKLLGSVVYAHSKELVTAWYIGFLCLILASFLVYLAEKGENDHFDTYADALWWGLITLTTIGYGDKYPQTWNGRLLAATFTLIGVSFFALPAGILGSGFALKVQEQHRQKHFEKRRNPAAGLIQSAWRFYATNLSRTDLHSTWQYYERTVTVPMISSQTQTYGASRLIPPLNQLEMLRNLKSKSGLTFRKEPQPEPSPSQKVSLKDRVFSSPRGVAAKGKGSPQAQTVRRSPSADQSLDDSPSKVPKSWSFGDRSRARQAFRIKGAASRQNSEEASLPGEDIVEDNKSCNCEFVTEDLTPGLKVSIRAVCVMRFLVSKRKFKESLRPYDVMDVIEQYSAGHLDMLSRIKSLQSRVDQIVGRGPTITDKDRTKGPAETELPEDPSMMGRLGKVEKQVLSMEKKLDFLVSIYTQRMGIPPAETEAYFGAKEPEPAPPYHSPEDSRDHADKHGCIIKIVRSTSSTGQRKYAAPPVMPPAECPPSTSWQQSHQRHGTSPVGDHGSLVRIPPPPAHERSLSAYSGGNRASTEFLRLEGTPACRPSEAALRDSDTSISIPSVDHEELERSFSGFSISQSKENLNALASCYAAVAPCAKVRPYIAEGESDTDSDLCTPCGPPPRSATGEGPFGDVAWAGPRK
# KCNQ2 enhance baseline = further read-out of KCNQ2 enhance, marked with its call; B-score; compound at 10 µM; measured here: initial fluorescence intensity artifact check;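 brightness before thallium and not channel activity; 0 = typical well and far values either way flag optical interference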
# * marks the source's active call; other numbers are inactive results.
SMILES,KCNQ2 enhance,KCNQ2 enhance baseline
C=CCNC(=S)NNC(=O)c1ccc(OCC(C)C)cc1,0.21,0.29
O=C1C(=O)N(CCN2CCOCC2)C(c2cccnc2)/C1=C(/O)c1ccc(Cl)cc1 (configuration not stated),2.1,1
Cn1nc(-c2ccccc2)cc1NC(=O)Nc1ccc(F)cc1,0.33,-1.3
CC1=CCC2C(=O)N(c3ccc(C)c(Br)c3)C(=O)C2C1 (configuration not stated),0.73,-0.87
COc1ccccc1/C=N/NC(=O)c1ccc(NC(=O)c2ccccc2Br)cc1,0.1,2.6
CCOCCCNC(=O)c1ccc2nc(-c3ccc(OC)c(OC)c3)c(-c3ccc(OC)c(OC)c3)nc2c1,1.1,0
O=C(O)CSCC(=O)NC1CCCc2ccccc21 (configuration not stated),0.42,-0.81
Cn1c(=O)c2c(ncn2CC(O)CO)n(C)c1=O (configuration not stated),2.4,-0.26
O=C(CN1CCOCC1)Nc1ncc(Cc2cccc(Cl)c2)s1,0.03,-0.45
N#Cc1cccc(NC(=O)Cn2c3[n+](c4ccc(C(F)(F)F)cc42)CCCCC3)c1,0.12,0.26
C[C@H]1CNC(=O)C(=O)N1C[C@H](Cc1ccc(O)cc1)NC(=O)CC12CC3CC(CC(C3)C1)C2,0.51,2.8
COc1cc(NS(=O)(=O)c2ccccc2)ccc1-n1nc(C)cc1C,0.53,-0.15
CCC(=O)N1c2ccc(S(=O)(=O)NCc3ccco3)cc2CC1C (configuration not stated),0.93,0.27
COc1ccc(NC(=O)CN2C(=O)CSC(C)C2=O)c(OC)c1 (configuration not stated),1.9,-0.23
CCCC(C)NC(=O)c1sc2nc3n(c(=O)c2c1C)CCC3 (configuration not stated),0.87,0.7
CCc1ccccc1NC(=O)C1CCCN(c2nn3c(=O)cc(C)nc3s2)C1 (configuration not stated),0.39,1.9
CCn1c(SCC(=O)c2ccc(C)cc2)nnc1-c1ccncc1,0.84,0.14
N=C1C(c2ccccc2)=C(O)CN1c1ccccc1,0.09,-0.22
COCc1nnc(NC(=O)COc2ccc3c(c2)OCO3)s1,2.8,0.2
CC(=O)Nc1cccc(-c2nnc(SCC(=O)N3CCCCC3)n2C)c1,0.28,-0.13
Cc1ccc(S(=O)(=O)N2CCC(C(=O)N[C@@H](C)C(=O)NCC3CCCO3)CC2)cc1 (some centres not stated),0.29,-1.6
COc1ccc(-c2noc(CCN3C(=O)c4ccccc4C3=O)n2)cc1OC,2.3,0.02
Cc1ccc(C(=O)CNc2ccccc2)cc1,1.4,0.3
CC(=O)Nc1ccc(OCC(=O)c2cc(C)ccc2C)cc1,1.7,0.56
Cc1ccc2c(=O)c(C(=O)c3ccc(F)cc3)cn(CC(=O)NCc3ccco3)c2n1,0.67,0.12

# Profiles as entered above.
# `CC1=CCC2C(=O)N(c3ccc(C)c(Br)c3)C(=O)C2C1` (configuration not stated) in the list: KCNQ2 enhance: 0.73; KCNQ2 enhance baseline: -0.87
# `Cn1nc(-c2ccccc2)cc1NC(=O)Nc1ccc(F)cc1` in the list: KCNQ2 enhance: 0.33; KCNQ2 enhance baseline: -1.3

# A portion taken from the entries so far, for reference:
SMILES,KCNQ2 enhance,KCNQ2 enhance baseline
C=CCNC(=S)NNC(=O)c1ccc(OCC(C)C)cc1,0.21,0.29
O=C1C(=O)N(CCN2CCOCC2)C(c2cccnc2)/C1=C(/O)c1ccc(Cl)cc1 (configuration not stated),2.1,1
Cn1nc(-c2ccccc2)cc1NC(=O)Nc1ccc(F)cc1,0.33,-1.3
CC1=CCC2C(=O)N(c3ccc(C)c(Br)c3)C(=O)C2C1 (configuration not stated),0.73,-0.87
COc1ccccc1/C=N/NC(=O)c1ccc(NC(=O)c2ccccc2Br)cc1,0.1,2.6
CCOCCCNC(=O)c1ccc2nc(-c3ccc(OC)c(OC)c3)c(-c3ccc(OC)c(OC)c3)nc2c1,1.1,0
O=C(O)CSCC(=O)NC1CCCc2ccccc21 (configuration not stated),0.42,-0.81

# More entries follow.
SMILES,KCNQ2 enhance,KCNQ2 enhance baseline
CC(=O)Nc1cccc(CNCc2cccc(NC(C)=O)c2)c1,2,-1.3
COc1cccc(/C=C/C(=O)Nc2ccc3c(c2)OCCO3)c1,0.36,-0.63
CCCNC(=S)Nc1ccc(Cl)cc1Cl,2.5,-0.17
COc1cc(SC)ccc1C(=O)Nc1c(C)cccc1C,0.24,-0.51
Cc1nn(C)cc1NC(=O)c1cc2nc(-c3ccco3)cc(C(F)(F)F)n2n1,0.01,1.7
CC1(C)OC(=O)C(=NNc2ccccc2[N+](=O)[O-])C(=O)O1,0.35,-0.15
CCOC(=O)Cc1csc(NS(=O)(=O)c2ccc(Br)cc2)n1,0.02,1.1
CCC(=O)Nc1cccc(NC(=O)c2ccc3c(c2)OCCO3)c1,0.04,-0.28
Cc1ccc(Cc2nnc(SCC(=O)Nc3ccc(C)cc3C)[nH]c2=O)cc1,1.7,1.1
O=C(c1ccc(Cl)c(S(=O)(=O)N2CCc3ccccc3C2)c1)N1CCN(c2ccccc2)CC1,1,0.82
CC(C)(C)c1ccc(C(=O)Nc2ccc(C(=O)N3CCCC3)cc2)cc1,2.9,1.1
O=[N+]([O-])c1ccc(OCn2cncn2)cc1,0.1,-1
COc1cc(CNC2CCCCCCC2)cc(Br)c1OCC#N,0.06,-2.3
COc1ccc(CCn2ccc(O)c(Cc3ccc(Cl)cc3Cl)c2=O)cc1OC,1.2,0.05
COc1ccc(CC(=O)NNC(=O)c2ccco2)cc1OC,0.32,0.43
Nc1cc(=O)[nH]c(SCCSc2ccc(F)cc2)n1,1.9,0
CCCc1ccc(C(=O)Cn2nc(C(=O)O)c3ccccc3c2=O)cc1,0.86,-0.08
O=C1[C@@H]2C(c3cccnc3)=NO[C@@H]2C(=O)N1c1ccc(Br)cc1,0.91,0.06
O=C(CSc1nnc(-c2ccc(O)cc2)n1Cc1ccccc1)NNC(=O)c1ccc(Br)cc1,0.07,0.67
COc1ccc(CNC(=O)OCCN2CCN(Cc3ccccc3)CCC2=O)cc1,0.27,0.41
CCn1c(NC(=O)c2ccccc2)c(-c2cccs2)c(=O)c2ccccc21,0.51,0
N#Cc1c(SCC(=O)Nc2ccc(Cl)cc2Cl)sc2c(O)cc(=O)[nH]c12,0.56,0.04
CCOc1ccc(C(=O)Nc2ccccc2C(=O)O)cc1,0.68,-2.9
COc1ccc(N2C(=O)C3CCCN3C2c2ccc(C)o2)cc1 (configuration not stated),0.54,0.77
Cc1ccc(N(CCC#N)C(=O)COC(=O)c2ccccc2SCC(=O)N2CCCC2)cc1,0.22,3.2

# Next records
SMILES,KCNQ2 enhance,KCNQ2 enhance baseline
COC(=O)c1ccc(CSc2ccc3nnc(-c4ccccn4)n3n2)o1,0.07,0.7
O=C(Cn1cncn1)N1CCN(c2ccc(F)cc2)CC1,0.38,-2.2
COc1ccc(NS(=O)(=O)c2ccc(C)c(C(=O)N3CC(C)OC(C)C3)c2)cc1 (configuration not stated),3.9,-1.9
COCCNC(=O)CS(=O)Cc1nc(-c2ccccc2C)oc1C (configuration not stated),1.3,0.62
NC(=S)N/N=C1\CC(c2ccc3c(c2)OCCCO3)Oc2ccc(F)cc21 (configuration not stated),2.7,-0.04
O=C(Nc1ccccc1)Nc1ccc(Nc2ccccc2)cc1,1.8,0.85
Cc1c(Br)c([N+](=O)[O-])nn1C(C)C(=O)Nc1c(C)n(C)n(-c2ccccc2)c1=O (configuration not stated),0.67,-0.74
CCOC(=O)c1cc(-c2cc(OC)c(OC)c(OC)c2)nc2c1c(=O)[nH]c(=O)n2Cc1ccccc1,0.5,-0.44
COCCn1c(C)cc(C(=O)CSc2nc3ccccc3s2)c1C,0.05,0.01
O=C(Cc1cccs1)NCc1cccnc1,1.1,-0.22
O=C(OCCNC(=O)c1cc2ccccc2oc1=O)c1cccnc1,0.79,-1.9
O=C(Nc1nnc(-c2ccc(Cl)cc2)o1)c1ccccc1Br,4.2,0.42
Cn1c(=O)c2c(ncn2CC(COCc2ccccc2)OCc2ccccc2)n(C)c1=O (configuration not stated),0.89,0.06
O=C(NC1CC2CCC(C1)N2Cc1nnnn1Cc1ccco1)NC12CC3CC(CC(C3)C1)C2 (configuration not stated),0.39,2
Cc1cccc(C)c1OCC(=O)NNC(=O)CCNC(=O)c1ccco1,1.2,0.72
O=S(=O)(NCCSc1nc2ccccc2o1)c1ccccc1,0.9,-0.01
CC/C(=N\NC(=O)C1CC1)c1cccc(Cl)c1,1.9,-0.08
O=C(CN1CCCC1)N1c2ccccc2Sc2ccc(C(F)(F)F)cc21,0.63,-0.04
O=C(Cn1nnc2ccccc21)Nc1ccccc1[N+](=O)[O-],0.77,1.4
Cn1c(CNc2ccc(Cl)cc2)nnc1SCCN1CCCCC1,0.45,-0.67
COC(=O)C1=C(C)Nc2nc(SCc3ccccc3)[nH]c(=O)c2C1c1cccs1 (configuration not stated),1.3,-0.52
CC(C)(C)NS(=O)(=O)CC12CCC(CC1=O)C2(C)C (configuration not stated),1.6,0.13
O=c1c2c([N+](=O)[O-])cc([N+](=O)[O-])cc2nc2ccccn12,1.3,0.26
CC(=O)Nc1cccc(Oc2ccc3c(c2)C(=O)N(CCC(=O)O)C3=O)c1,0.75,-1.3
COc1ccc(NC(=O)Cc2c(F)cccc2Cl)c(OC)c1,0.63,-0.73

# (more compounds)
SMILES,KCNQ2 enhance,KCNQ2 enhance baseline
Cc1ccc(SCCC(=O)N/N=C/c2ccccc2O)cc1,0.06,-2.4
CC(C)(C)C(=O)Oc1cc(N)n(S(=O)(=O)c2ccccc2)n1,0.77,0.68
Cc1cc(C)n(CC(C)NCc2c(C(=O)N3CCOCC3)nc3c(C)cccn23)n1 (configuration not stated),1.7,-1.4
COc1ccc(CCNC(=O)c2nnn(CC(=O)Nc3ccccc3C)c2N)cc1OC,0.37,0.03
COc1ccccc1OCC(=O)NNC(=O)CCCC(=O)NNC(=O)COc1ccccc1OC,0.88,1
CN(C)c1ccc(/C=N/NC(=O)COc2ccccc2)cc1,0.77,-1.1
NC(=O)c1cc[n+](Cc2ccccc2Cl)cc1,0.17,-0.41
CC1(c2ccc(Cl)cc2)NC(=O)N(CC(=O)NC(=O)NCc2ccco2)C1=O (configuration not stated),0.39,0.49
COc1ccc(C(=O)C[n+]2ccc3c(c2)nc(-c2ccc(OC)cc2OC)n3C)cc1,0.63,-0.11
C=CCN1CCN(C(c2ccccc2OC)c2nnnn2C(C)(C)C)CC1 (configuration not stated),1.4,-1.7
COc1ccc(S(=O)(=O)N(C)c2ccc(C(=O)NC3CCCC3)cc2)cc1,1,1.2
CCC(C)C(=O)Nc1ccc([N+](=O)[O-])cc1OC (configuration not stated),0.34,-1.1
C/C(=N\NC(=O)c1ccccc1O)c1cccc(NC(=O)c2ccccc2)c1,1.4,1.6
COc1ccc(NC(=O)N2CCC(Cc3ccccc3)CC2)cc1,1.9,0.96
Cc1ccccc1OCC(=O)Nc1cnn(CCCC(=O)O)c1,1,-0.02
CCOC(=O)c1cccc(OCC(O)CNCCOc2ccccc2F)c1 (configuration not stated),0.64,-0.54
C/C(=N\NS(=O)(=O)c1ccc(C)cc1)c1ccc(Br)s1,0.78,1.2
Cc1nn(Cc2ccc(Cl)cc2)c(C)c1NC(=O)/C=C/c1cnn(C)c1,0.19,-0.49
Cc1ccccc1Cn1c([N+](=O)[O-])cnc1C,0.37,-2
CC(=O)Nc1ccc(NC(=O)C(C)OC(=O)CNC(=O)c2sc3ccccc3c2Cl)cc1 (configuration not stated),0.26,-1.8
COc1ccc(CC2(CO)CCN(Cc3ccc(OC(F)(F)F)cc3)CC2)cc1,0.09,-0.89
CCNC(=O)C(=O)NCCC1CCCCN1S(=O)(=O)c1cccs1 (configuration not stated),0.12,0.87
Cc1c(Cl)cccc1NC(=S)N1CCCCCC1,0.58,1.6
COc1ccc(-c2c(NC(=O)c3ccco3)n(C)c3ccccc3c2=O)cc1,0.2,-0.91
O=C(C#Cc1ccccc1)c1ccc([N+](=O)[O-])cc1,0.63,0.61

# Additional structures
SMILES,KCNQ2 enhance,KCNQ2 enhance baseline
O=C1NC(=O)C(CC(=O)N(c2ccccc2)C2(C(=O)NC3CCCC3)CCCCC2)N1 (configuration not stated),1.5,-2
Fc1ccc(-c2nnc3n2CCCCC3)cc1,0.9,0.23
NC(=O)CNc1n[nH]c(=S)[nH]c1=O,0.04,-2.9
c1ccc(CNc2c3c(nc4ncnn24)CCCC3)nc1,0.96,2
Cc1ccc(SCCC(=O)Nc2cccnc2)cc1,4.6,-0.86
CCNc1nc(OC)nc(Oc2ccc(=O)n(-c3ccccc3)n2)n1,0.08,1.5
COC(=O)c1cc(C(=O)NCC2CCCCC2)cc([N+](=O)[O-])c1,2.6,-1.6
Cc1ccc(-c2nn(Cc3ccccc3)cc2/C=C/C(=O)O)cc1C,0.12,0.01
COC(=O)C(Cc1c[nH]c2ccccc12)NC(=O)C1CC1 (configuration not stated),0.26,-0.38
N#CCc1cccnc1Sc1ccc(Cl)cc1,1.7,-0.71
Cc1nn(C)c(C)c1/C=N/NC(=O)c1csc2ccccc12,0.04,0.16
O=C(COC(=O)c1ccccc1NC(=O)c1ccco1)NCC1CCCCC1,1.7,0.57
Cc1cc(NC(=O)Cn2cnc3c2c(=O)n(C)c(=O)n3C)n(-c2ccccc2)n1,0.47,1.1
Cc1nc(C(=O)NNC(=O)c2ccc(Cl)cc2)cs1,0.47,-1.2
O=C(O)c1cccc(NC(=O)c2ccc(Cl)c(S(=O)(=O)N3CCCCCC3)c2)c1,0.73,1.3
CC1CC(CCN)(c2ccccc2)C(C)CN1C (configuration not stated),0.73,-0.02
Cc1cc2[nH]cnc2c([N+](=O)[O-])c1C,1.3,0.02
O=C(CCCO)CCCCCCCCC[C@H]1N[C@H](CO)[C@@H](O)[C@@H]1O,0.8,-0.39
CCC(=O)Nc1ccc(S(=O)(=O)NCC2CCCO2)cc1 (configuration not stated),0.56,0.65
O=C1C2C3C=CC(C2C(=O)N1C1CCCCC1)C1C(=O)N(C2CCCCC2)C(=O)C31 (configuration not stated),0.63,1.6

# Screening results: PubChem, Johns Hopkins Ion Channel Center

# A portion of the library, so the mix of outcomes need not match the whole.
